Calb FLC: C. albicans growth inhibition with fluconazole, primary screen, CaCi-2 strain, Alamar Blue fluorescence | C. albicans CaCi-2 (fluconazole-resistant clinical isolate) + fluconazole, 48 h | growth inhibition, % (no concentration beside the values) | actives 0.57% (n = 300,000) | AID 1979, 2009;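 active means most replicates above 75%; inconclusive means exactly half above 75%; inactive means most below 75%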;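 further: all wells also contain fluconazole at 8 µg/ml as a sub-toxic cotreatment; 0% = median of DMSO wells and 100% = median of geldanamycin control wells; wells of about 8 µL received 7.5 nL stock; the first replicate is given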
RanGTP-Impb inh: inhibitors of RanGTP-importin-beta interaction, primary screen, biochemical, FRET, CFP-Ran, YFP-importin-beta, homogeneous | Ran GTPase (GTP-bound) - importin-beta complex | cell-free CFP-Ran/YFP-importin-beta FRET ratio | inhibition, % (concentration not given with the values) | actives 1.1% (n = 300,000);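 active means most replicates above 15%; inconclusive means exactly half above 15%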;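 further: 0% = DMSO wells and 100% = Ran loaded with GDP instead of GTP; wells of about 40 µL received 100 nL stock; the first replicate is given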
FGF22 binding: binders of human FGF22 protein, primary screen, FGF22 synaptogenesis inhibitor project, biophysical, thermal shift, single point | Fibroblast growth factor 22 (Homo sapiens), Q9HCT0 | calls only at 9.99 µM | recombinant FGF22 thermal shift, SYPRO orange fluorescence; percent of sucrose octasulfate shift, DMSO zero | actives 1.5% (n = 340,000);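 active means melting point raised past a set limit in the mean and every replicate; inconclusive means no clear call; three in four hits are not shown here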
Target sequence (Q9HCT0 whole entry, looked up): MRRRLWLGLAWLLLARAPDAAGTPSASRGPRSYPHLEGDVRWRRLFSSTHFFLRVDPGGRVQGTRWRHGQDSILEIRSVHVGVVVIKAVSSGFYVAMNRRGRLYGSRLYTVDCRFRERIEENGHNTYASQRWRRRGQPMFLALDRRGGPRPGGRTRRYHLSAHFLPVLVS
ALR inh: inhibitors of human ALR sulfhydryl oxidase, primary screen, biochemical, H2O2 detection, HRP-luminol luminescence, single point. FAD-linked sulfhydryl oxidase ALR (Homo sapiens), P55789. inhibition, % (no concentration beside the values). purified ALR, DTT oxidation. actives 3.8% (n = 290,000);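 active means mean and each replicate at 75% or more; inconclusive means only one of the two met; inactive means neither met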;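 further: stock transfer was 7.5 nL into about 7.5 µL; 0% = neutral wells and 100% = wells with inactivated enzyme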
Target sequence (P55789 whole entry, looked up): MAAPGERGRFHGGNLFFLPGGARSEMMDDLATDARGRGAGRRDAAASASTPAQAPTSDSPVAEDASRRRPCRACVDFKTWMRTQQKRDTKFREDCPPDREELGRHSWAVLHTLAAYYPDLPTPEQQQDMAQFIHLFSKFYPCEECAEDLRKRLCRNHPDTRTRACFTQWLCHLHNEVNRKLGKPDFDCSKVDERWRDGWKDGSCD
rRNA inh HTS: reduced GFP signal of wild-type E. coli, primary screen, bacterial rRNA inhibitor project, GFP/RFP fluorescence, OD600, single point | actives 1.6% (n = 350,000) | E. coli WT GFP vs humanized-ribosome RFP mutants, 24 h; hits give low values; DMSO median 0, no signal -100 | GFP signal change (wild-type ribosome), % (concentration not given with the values);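 active means significant combined selectivity score with lowered wild-type GFP, culture density cut under 30%, mutant RFP and density less affected; inactive means any of these conditions unmet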; further: one replicate is shown; some compounds called inactive have numbers as strong as hits
T cruzi inh: inhibitors of intracellular T. cruzi growth, primary screen, luminescence, NIH3T3 host cells | T. cruzi beta-gal in NIH3T3, 90 h | inhibition, % (concentration not given with the values) | actives 1.4% (n = 300,000);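 active means mean inhibition across valid replicates above about 55%, limit read from the data; inconclusive means mean below that limit but half or more replicates reach it; inactive means mean below it, under half of replicates reach it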;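 further: signal also drops with host cell toxicity which is not excluded here; 0% = plate median of DMSO wells and 100% = zero luminescence signal; higher percent means less beta-gal luminescence so fewer parasites; stock transfer was 50 nL into about 50 µL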
Beta cell apopt: inhibitors of cytokine-induced beta cell apoptosis, primary screen, luminescence | AID 435005, 2010 | INS-1E cytokine-induced death, ATP luminescence, 48 h; percent of positive-control rescue, neutral wells zero | actives 0.8% (n = 300,000) | protection from apoptosis, % (no concentration beside the values);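 active means all replicates at 75% or more, or half of them and the mean; inconclusive means half reach 75% but not the mean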;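 further: 0% = cytokine-treated negative control wells and 100% = positive control rescue; higher means more ATP so stronger rescue from cytokine killing; wells of about 40 µL received 100 nL stock; the first replicate is given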
MLL AF4-AF9 inh: inhibitors of AF4 peptide binding to AF9, primary screen, biochemical, AlphaScreen, biotin-AF4 peptide, FLAG-AF9, single point; Protein AF-9 (Homo sapiens), P42568; inhibition, % at 10 µM; actives 0.47% (n = 350,000); AID 651704, 2012;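 active means every replicate reaching a set inhibition limit, whatever the replicate mean, cut at about 25% in these data; inconclusive means mean inhibition reaches that limit but some replicates miss it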;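 further: 0% = plate neutral control median and 100% = total signal loss; the record names both 10 and 1 µM as test concentration; the first replicate is given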
Target sequence (P42568 whole entry, looked up): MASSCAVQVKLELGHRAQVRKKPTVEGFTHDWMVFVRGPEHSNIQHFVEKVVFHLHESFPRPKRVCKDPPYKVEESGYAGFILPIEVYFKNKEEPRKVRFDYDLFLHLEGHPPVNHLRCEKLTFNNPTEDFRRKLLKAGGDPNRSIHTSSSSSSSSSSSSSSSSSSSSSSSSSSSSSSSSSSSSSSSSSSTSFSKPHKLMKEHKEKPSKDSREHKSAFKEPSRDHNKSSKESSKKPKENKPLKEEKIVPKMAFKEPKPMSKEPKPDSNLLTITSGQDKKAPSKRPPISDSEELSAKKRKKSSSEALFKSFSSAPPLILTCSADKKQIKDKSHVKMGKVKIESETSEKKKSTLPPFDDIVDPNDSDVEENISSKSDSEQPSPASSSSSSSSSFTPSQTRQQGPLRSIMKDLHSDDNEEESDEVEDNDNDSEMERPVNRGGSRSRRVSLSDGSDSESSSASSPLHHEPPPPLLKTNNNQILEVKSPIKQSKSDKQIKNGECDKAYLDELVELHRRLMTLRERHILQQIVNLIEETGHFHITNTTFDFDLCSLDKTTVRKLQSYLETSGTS
rRNA inh HTS OD600: further read-out of rRNA inh HTS, marked with its call; OD600 change, %; measured here: OD600 growth;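 optical density of the mix in the first replicate; 0 = DMSO median and -100 = no signal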
rRNA inh HTS RFP: also measured in rRNA inh HTS; calls as there; RFP signal change, %; measured here: RFP humanized mutant strains;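 first replicate; 0 = DMSO median and -100 = no signal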
The depositor's hits bear a star; & = joins results of further samples.

What do the screens show for `O=C(OCC(=O)N1CCN(c2ccccc2)CC1)c1ccccc1OC(F)F`?
Calb FLC: -1.1; FGF22 binding: inactive; ALR inh: 31.8; rRNA inh HTS: -3.9; T cruzi inh: -3.7; Beta cell apopt: 2.2; MLL AF4-AF9 inh: -1.5; rRNA inh HTS OD600: -3.9; rRNA inh HTS RFP: -1.9

What do the screens show for `C[C@H](CO)N1C[C@H](C)[C@@H](CN(C)S(=O)(=O)c2ccccc2)Oc2ccc(NC(=O)Cn3cnnn3)cc2C1=O`?
FGF22 binding: inactive; ALR inh: 0.1; rRNA inh HTS: 11.2&0.4; Beta cell apopt: 0.4; MLL AF4-AF9 inh: 3.1; rRNA inh HTS OD600: 11.4&-1.9; rRNA inh HTS RFP: 3.5&2.7

What do the screens show for `O=C(Nc1ccc(S(=O)(=O)Nc2ncccn2)cc1)c1cc([N+](=O)[O-])ccc1Cl`?
Calb FLC: -5.0; RanGTP-Impb inh: inconclusive; FGF22 binding: inactive; rRNA inh HTS: 10.6; T cruzi inh: -0.8; MLL AF4-AF9 inh: 3.0; rRNA inh HTS OD600: 12.6; rRNA inh HTS RFP: -1.8

How did C[C@]12C(=O)N(c3cccc(F)c3)C(=O)N1[C@H]1c3ccccc3OC[C@@H]1[C@H]2c1ccccc1 do in these assays?
FGF22 binding: inactive; ALR inh: -0.7; rRNA inh HTS: 5.0; Beta cell apopt: 4.3; rRNA inh HTS OD600: 2.7; rRNA inh HTS RFP: -2.1

What do the screens show for `Cc1ccccc1OCC(O)CN(CCO)Cc1ccccc1` (stereo not drawn)?
Calb FLC: -14.5; RanGTP-Impb inh: 0.8; ALR inh: -5.3; rRNA inh HTS: -1.2; T cruzi inh: -2.3; Beta cell apopt: -1.9; MLL AF4-AF9 inh: -0.4; rRNA inh HTS OD600: 10.7; rRNA inh HTS RFP: 0.0

What do the screens show for `COc1cc(/C=N/NC(=O)Nc2ccccc2)ccc1OC(C)=O`?
Calb FLC: 6.9; RanGTP-Impb inh: 3.1; FGF22 binding: inactive; ALR inh: -2.3; T cruzi inh: -8.7; Beta cell apopt: 0.5; MLL AF4-AF9 inh: -0.3

How did COc1ccc(NC(=O)NC2(C(=O)N3CCOCC3)CCCCC2)cc1 do in these assays?
Calb FLC: 4.6; RanGTP-Impb inh: 2.5; FGF22 binding: inactive; ALR inh: -2.6; rRNA inh HTS: 1.0; T cruzi inh: -12.4; Beta cell apopt: -4.1; MLL AF4-AF9 inh: 0.9; rRNA inh HTS OD600: 1.4; rRNA inh HTS RFP: -1.6

Results for Cc1ccc2c(c1)sc1nc(=O)ccn12 ?
Calb FLC: 10.8; RanGTP-Impb inh: -0.8; FGF22 binding: inactive; ALR inh: -4.3; rRNA inh HTS: 9.8; T cruzi inh: -13.3; Beta cell apopt: -2.3; MLL AF4-AF9 inh: -1.1; rRNA inh HTS OD600: 5.8; rRNA inh HTS RFP: 0.9

How did Cc1ccc(C(c2sc3ncnn3c2O)N2CCCCC2)cc1 (stereo not drawn) do in these assays?
Calb FLC: -3.6; RanGTP-Impb inh: 1.4; FGF22 binding: inactive; ALR inh: 5.3; rRNA inh HTS: -1.7; T cruzi inh: -5.1; Beta cell apopt: -0.6; MLL AF4-AF9 inh: -3.9; rRNA inh HTS OD600: 1.7; rRNA inh HTS RFP: -7.2

What do the screens show for `Fc1ccccc1/C=N/n1c(COc2ccccc2)n[nH]c1=S`?
Calb FLC: 1.0; RanGTP-Impb inh: 1.5; FGF22 binding: inactive; rRNA inh HTS: 28.0; T cruzi inh: -5.4; MLL AF4-AF9 inh: -0.4; rRNA inh HTS OD600: -14.3; rRNA inh HTS RFP: 20.1

What do the screens show for `COCc1cc(CN2CCN(CCCc3ccccc3)C(CCO)C2)ccc1OC` (stereo not drawn)?
Calb FLC: -29.2; RanGTP-Impb inh: 0.2; FGF22 binding: inactive; ALR inh: -1.7; rRNA inh HTS: 2.2; T cruzi inh: 17.7; MLL AF4-AF9 inh: 3.6; rRNA inh HTS OD600: -3.2; rRNA inh HTS RFP: 1.5

Results for Cc1cc(C)cc(C(=O)N(C)C2CCCN(Cc3ccccc3F)C2)c1 (stereo not drawn) ?
Calb FLC: -2.8; RanGTP-Impb inh: -1.5; FGF22 binding: inactive; rRNA inh HTS: -14.4; T cruzi inh: 6.3; MLL AF4-AF9 inh: 1.1; rRNA inh HTS OD600: -9.5; rRNA inh HTS RFP: 0.7

How did CCOC(=O)c1nnn2c1nc(N1CCN(C)CC1)c1ccccc12 do in these assays?
Calb FLC: 0.0; RanGTP-Impb inh: 2.0; FGF22 binding: inactive; ALR inh: -5.0; rRNA inh HTS: -8.1; T cruzi inh: 22.6; Beta cell apopt: -1.9; rRNA inh HTS OD600: 0.8; rRNA inh HTS RFP: 2.8

What do the screens show for `CC(C)Cc1nnc(NC(=O)CCS(=O)(=O)c2ccc(Cl)cc2)s1`?
Calb FLC: 66.0; RanGTP-Impb inh: -5.0; FGF22 binding: inactive; ALR inh: -6.4; rRNA inh HTS: 19.0; T cruzi inh: -20.8; Beta cell apopt: -13.1; MLL AF4-AF9 inh: -0.1; rRNA inh HTS OD600: 11.2; rRNA inh HTS RFP: 4.6

Results for COC(CNC(=O)CN1CCN(Cc2ccc(F)cc2Cl)C1=O)OC ?
Calb FLC: -3.3; RanGTP-Impb inh: -4.0; FGF22 binding: inactive; ALR inh: -11.9; rRNA inh HTS: 23.4; T cruzi inh: -12.4; Beta cell apopt: -4.2; MLL AF4-AF9 inh: -5.2; rRNA inh HTS OD600: 21.6; rRNA inh HTS RFP: 4.3

Results for CS(=O)CSc1nc2c(cc1C#N)CCCC2 (stereo not drawn) ?
Calb FLC: -9.3; RanGTP-Impb inh: -1.2; ALR inh: -3.7; T cruzi inh: -1.2; Beta cell apopt: -2.7

Results for Fc1cccc(-c2nnn3c2nc(Cl)c2ccccc23)c1 ?
Calb FLC: 14.3; RanGTP-Impb inh: 1.0; FGF22 binding: inactive; rRNA inh HTS: 6.7; T cruzi inh: 33.6; MLL AF4-AF9 inh: 0.4; rRNA inh HTS OD600: -2.5; rRNA inh HTS RFP: 11.2

Results for CCC(Cc1ccccc1)NC(=O)CCNS(=O)(=O)c1cc(Br)cnc1N (stereo not drawn) ?
Calb FLC: -6.2; RanGTP-Impb inh: -2.1; FGF22 binding: inactive; ALR inh: -5.1; rRNA inh HTS: -11.1; T cruzi inh: 22.1; Beta cell apopt: 0.0; MLL AF4-AF9 inh: -8.6; rRNA inh HTS OD600: -18.0; rRNA inh HTS RFP: -2.0

What do the screens show for `CCN(CC)S(=O)(=O)c1ccc(/C=C/C(=O)Nc2ccc(Br)cc2F)cc1`?
Calb FLC: 14.6; RanGTP-Impb inh: 2.3; ALR inh: -4.3; T cruzi inh: 50.0; Beta cell apopt: 4.0

How did Cc1ccc(C(=O)NC(=S)Nc2ccccc2N2CCCC2)cc1[N+](=O)[O-] do in these assays?
Calb FLC: 44.9; RanGTP-Impb inh: 3.3; FGF22 binding: inactive; rRNA inh HTS: 3.5; T cruzi inh: 4.4; Beta cell apopt: -1.8; MLL AF4-AF9 inh: 3.8; rRNA inh HTS OD600: 3.7; rRNA inh HTS RFP: 8.2

Results for O=[N+]([O-])c1ccc(CN2CCN(c3ccc(Cl)cc3)CC2)o1 ?
Calb FLC: 10.4; RanGTP-Impb inh: 5.1; FGF22 binding: inactive; ALR inh: 11.9; rRNA inh HTS: 26.1; T cruzi inh: 59.3*; Beta cell apopt: -1.3; MLL AF4-AF9 inh: 3.1; rRNA inh HTS OD600: 0.9; rRNA inh HTS RFP: 2.4

How did CCOC(=O)/C=C1/SCC(=O)N1CC(=O)Nc1cccc(F)c1 do in these assays?
FGF22 binding: inactive; ALR inh: -0.3; rRNA inh HTS: 12.9; Beta cell apopt: -9.4; MLL AF4-AF9 inh: 6.8; rRNA inh HTS OD600: 15.8; rRNA inh HTS RFP: 3.6

Results for Cc1nccn1CCOc1ccc(Cl)cc1 ?
Calb FLC: 5.1; RanGTP-Impb inh: -1.5; FGF22 binding: inactive; ALR inh: -1.2; rRNA inh HTS: 1.6; T cruzi inh: -17.5; MLL AF4-AF9 inh: 0.2; rRNA inh HTS OD600: 4.4; rRNA inh HTS RFP: -1.8

How did CS(=O)(=O)c1ccc(-c2nn[nH]n2)cc1 do in these assays?
Calb FLC: 0.4; RanGTP-Impb inh: 9.5; ALR inh: -4.8; T cruzi inh: -13.2; Beta cell apopt: -1.6

What do the screens show for `O=C1CC(C(=O)O)S/C(=N\NC(=O)c2ccc(F)cc2)N1` (stereo not drawn)?
Calb FLC: -3.7; RanGTP-Impb inh: 2.2; FGF22 binding: inactive; ALR inh: 6.6; rRNA inh HTS: 4.9; T cruzi inh: -14.6; Beta cell apopt: -2.4; MLL AF4-AF9 inh: 2.4; rRNA inh HTS OD600: 5.0; rRNA inh HTS RFP: 9.4

Results for CCc1noc(C)c1C(=O)Oc1ccc(N(C)S(=O)(=O)c2ccc(C)c(C)c2)cc1 ?
Calb FLC: 3.2; FGF22 binding: inactive; ALR inh: 22.1; rRNA inh HTS: 5.3; T cruzi inh: 31.0; Beta cell apopt: 3.2; MLL AF4-AF9 inh: -10.9; rRNA inh HTS OD600: -13.4; rRNA inh HTS RFP: 0.5

How did Cc1cc(C(=O)CSc2nnc(-c3cccs3)n2Cc2ccccc2)c(C)n1C do in these assays?
Calb FLC: -16.8; RanGTP-Impb inh: -0.5; ALR inh: -3.5; T cruzi inh: 18.6; Beta cell apopt: 6.5

Results for Cc1ccc(Sc2ncccc2C(N)=O)cc1 ?
Calb FLC: -8.9; RanGTP-Impb inh: -0.1; FGF22 binding: inactive; ALR inh: 1.7; rRNA inh HTS: 6.9; T cruzi inh: -3.0; MLL AF4-AF9 inh: -1.6; rRNA inh HTS OD600: 7.3; rRNA inh HTS RFP: -0.1

Results for NC(=O)C1CCN(CC(O)COc2ccc(-c3ccccc3)cc2)CC1 (stereo not drawn) ?
Calb FLC: -4.1; RanGTP-Impb inh: 3.9; FGF22 binding: inactive; ALR inh: 13.2; rRNA inh HTS: 6.1; T cruzi inh: -22.8; Beta cell apopt: -5.8; MLL AF4-AF9 inh: 1.7; rRNA inh HTS OD600: 3.5; rRNA inh HTS RFP: -2.4

How did NC(=O)c1ccc(NC(=O)CSc2nc3ccccc3c(=O)n2CCCN2CCOCC2)cc1 do in these assays?
FGF22 binding: inactive; ALR inh: 5.2; rRNA inh HTS: 8.8; Beta cell apopt: -3.3; MLL AF4-AF9 inh: -2.8; rRNA inh HTS OD600: 9.7; rRNA inh HTS RFP: 0.5

Not all compounds are listed (hit frequency here may not be typical).
